BJeLR lethal: kills HRASV12-expressing BJeLR cells | inhibition, % (test concentration not listed) | BJeLR (HRASV12) viability, CellTiter-Glo ATP luminescence, 48 h; reference of the scale not given here | 0.17% of 300,000 active;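 active = replicate mean above 50%; inconclusive = above 50% but judged a plate artefact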;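 note: 50 nL library stock added to about 25 µL; numbers are from one replicate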
Sa RN4220 lethal: kills Staphylococcus aureus RN4220 | 0.33% of 330,000 active | inhibition, % (no concentration beside the values) | S. aureus RN4220 growth, OD600, 16 h;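 active = z-score of -3 or lower and OD600 up to 0.18 on both plates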;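 note: plate controls were untreated cells for no effect and reference antibiotic for full effect; stock transfer was 100 nL into about 80 µL; one replicate is shown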
Mtb hypoxia inh: inhibitors of hypoxia-regulated fluorescent reporter in Mycobacterium tuberculosis | M. tuberculosis hypoxia-regulated fluorescent reporter, fluorescence | fluorescence inhibition, % (test concentration not listed) | 0.1% of 300,000 active | AID 1159583;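 active = 35 to 45% if threefold the growth effect, above 45% if 1.5-fold the growth effect; inactive = the rest, general growth blockers included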;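 note: wells of about 50 µL received 100 nL stock; 0% = vehicle wells and 100% = reference inhibitor wells; whole bacteria with a GFP reporter of the hypoxia response; strong numbers were not always called active; many hits fall short of the cut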
PrP 5UTR inh: inhibition of PrP 5' UTR reporter expression; cell-based PrP 5' UTR mRNA reporter, plate reader; inhibition, % (test concentration not listed); 0.35% of 340,000 active; AID 488862;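 active = every replicate at 50% or more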;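 note: 0 = median of the neutral control wells; tested in H4 reporter cells; numbers are from one replicate; inactives centre near -14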
ugtP null kill: compounds lethal to S. aureus RN4220 ugtP deletion mutant; 0.54% of 330,000 active; AID 1259309; OD600 growth, 16 h; some inactives read as strong as hits; growth inhibition, % (test concentration not listed);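 active = z-score under -3 and OD600 up to 0.15 on both plates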;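 note: plate controls were untreated wells for no effect and antibiotic for full effect; wells of about 80 µL received 100 nL stock; the first replicate is given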
Autofluor counter: compound fluorescence in toxin protease inhibitor counterscreen | compound autofluorescence counterscreen, microsphere flow cytometry; hits give high values | fluorescence intensity (no concentration beside the values) | AID 624483 | 3.1% of 360,000 active;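 active = at least 3 SD above the mean of all compounds, about 16000 in these data; inconclusive = too few beads counted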;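 note: 100 nL of 1 mM stock went into each well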
Mtb hypoxia inh growth: second read-out of Mtb hypoxia inh, no call of its own (marks repeat the call); growth inhibition, %; measured here: M. tuberculosis growth (absorbance);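 0% = vehicle and 100% = reference antibiotic; read after six days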
The depositor's hits bear a star; ? = inconclusive; . = not tested or not shown; & = joins results of further samples.

SMILES	BJeLR lethal	Sa RN4220 lethal	Mtb hypoxia inh	Mtb hypoxia inh growth	PrP 5UTR inh	ugtP null kill	Autofluor counter
COc1ccc(OC)c(S(=O)(=O)N2CCC3(CC2)OCCN3S(=O)(=O)c2ccccc2)c1	4	1.6	4	7	-20	9	5455
COc1ccc(CCNC(=O)Cc2ccc(NS(=O)(=O)c3ccc(F)cc3)cc2)cc1OC	.	-1.5	0	8	-10	2	3689
COc1ccc(-c2ccc(SCC(=O)NCc3ccc4c(c3)OCO4)nn2)cc1OC	-4	0.3	-10	2	-10	-3	4329
CC(C)=CCc1c(C)nc2ccccc2c1C(=O)O	-4	2.2	.	.	-7	13	3651
O=C(Nc1ccccc1)N1N=C(c2cccs2)CC1c1cccs1 (configuration not stated)	10	8.9	3	0	-6	-3	2052
CCn1c(O)c(N=NC(=O)CNC(=O)/C=C/c2ccccc2)c2ccccc21	-14	6.1	11	8	2	-1	4781
Cn1nc(C(F)(F)F)c(-c2ccccc2)c1NC(=O)c1nccnc1C(=O)O	-4	3.8	0	12	-3	-2	4193
CCOc1ccccc1CNC(=O)C1CCC(=O)N1C(C)C (configuration not stated)	0	0.7	4	1	-19	2	22457*
C[C@@H](C(=O)Nc1ccc2ccccc2c1)[C@@H]1C[C@@]1(C)[C@@H](NC(=O)c1cccnc1)c1ccccc1	14	.	.	.	-28	.	2897
COc1ccc(N2CCN(C(=O)COc3ccc4c(C)cc(=O)oc4c3)CC2)cc1	-7	6.9	0	1	0	0	4730
Cc1cc(C(=O)NCc2cccs2)c(C)o1	-1	-0.6	-7	0	-3	-10	19810*
O=C1CC(c2ccccc2)CC(O)=C1C=Nc1ccccc1Cl (configuration not stated)	-5	-3.3	-6	3	-26	0	8992
CN(c1ccc(OCC(=O)OCC(=O)Nc2ccc(OC(F)F)cc2)cc1)S(=O)(=O)c1cccs1	.	5.4	4	1	-31	9	3325
CCN(CC)S(=O)(=O)c1cccc(C(=O)Nc2cc(C)cc(C)c2)c1	-1	5.7	3	0	-41	21	3498
COc1cccc(-c2cc(C(=O)Nc3ccncc3)c3ccccc3n2)c1	10	-4.8	4	5	-18	6	7566
NC(=O)NC(c1ccccc1)c1ccccc1	-11	2.0	1	7	13	2	10031
O=C(NCc1ccccc1Cl)c1cnn2cccnc12	3	6.1	.	.	-19	-2	4865
CCOc1ccc(NC(C)C(=O)NN=Cc2ccc([N+](=O)[O-])cc2)cc1 (configuration not stated)	.	2.8	-2	-2	.	-10	.
Cc1ccccc1C(=O)c1cccn1CC(=O)NCCN1CCN(c2cccc(C)c2C)CC1	-3	-8.9	-2	11	-14	-46	3987
Cc1cccc(NC(=O)CN2CCN(C(=O)CN3C(=O)NC4(CC(C)CC(C)(C)C4)C3=O)CC2)c1C (configuration not stated)	.	0.2	2	12	-11	4	3974
O=C(CCNC(=O)c1ccccc1Cl)NCCC1=CCCCC1	-6	2.4	6	6	-15	1	?
Cc1c(Cl)c([N+](=O)[O-])nn1CC(=O)N1CCN(C23CC4CC(CC(C4)C2)C3)CC1	5	-3.9	-9	-2	8	-7	3563
O=C(Nc1c2c(nc3ccccc13)CCCC2)c1ccccc1Br	-8	5.9	-5	5	-15	4	2165
Cc1ccsc1C(=O)N1CCC(CO)(Cc2ccccc2)CC1	.	10.0	11	0	-30	11	3405
c1ccc(-c2ccnc3nc(N4CCN(c5ccccc5)CC4)nn23)cc1	-2	1.6	10	8	-15	-7	9029
CCN1/C(=C2\C(=O)N(c3ccccc3)N=C2C)C=Cc2cc(C)ccc21	1	3.3	15	3	-6	4	2608
Cc1ccn2cc(C(=O)Nc3ccc4c(c3)OCCO4)nc2c1	17	1.9	-9	-5	-3	-1	12618
CCOc1ccc(Cc2noc3c2C(=O)CC(C)(C)C3)cc1OCC	-12	5.2	12	6	1	4	4326
Cc1cc(C)nc(N/N=C/C2=C(N3CCOCC3)C(=C/c3ccccc3)/CC2)n1	11	.	.	.	-19	.	2453
O=C(O)c1cc(NN=C/C(Cl)=C/c2ccccc2)ccc1Cl	.	1.2	4	-1	.	-6	.
CCCn1c(CNc2ccccc2O)nc2ccccc21	-7	0.6	.	.	.	3	10557
CC(C)OP(=O)(OC(C)C)C(NC(=O)c1ccccc1)C(N)=O (configuration not stated)	11	1.8	4	9	-31	-4	4286
Cc1ccc(S(=O)(=O)c2c(C)cc(C)[nH]c2=O)cc1	9	0.4	1	3	-15	2	3504
CCOc1nc(Nc2ccc(OC)cc2)nc(OCC)n1	11	11	.	.	-13	11	3637
O=C(/C=C/c1ccc(Cl)cc1)Nc1ccc(Br)cn1	4	3.5	2	-2	-80	4	3293
COC(=O)CC(NC(=O)Nc1ccc(C)cc1)c1cccc([N+](=O)[O-])c1 (configuration not stated)	-4	5.7	16	15	-13	4	3367
O=C(NN=Cc1ccsc1)c1cc(-c2ccncc2)nc2ccccc12	.	4.3	10	5	.	3	.
O=C(Nc1ccc2c(c1)OCCO2)c1cc2sccc2n1Cc1ccccc1	10	-2.5	.	.	-18	35	3781
CCC1(CC)C(=O)C2=C3C1[C@H](C(=O)OC)C=C(C(=O)OC)C[C@H]3[C@H]1C(=O)N(CC(=O)OC)C(=O)[C@H]1[C@H]2C (some centres not stated)	13	.	.	.	-12	.	3651
COc1ccc(CNC(=O)CN2C(=O)NC3(CCCCCC3)C2=O)cc1OC	.	1.5	9	1	-1	0	4503
CCOC(=O)c1ccc2c(c1)nc(SCC(=O)N1CCOCC1)n2CC	-4	5.1	13	6	-5	-62	3862
N#Cc1cc(-c2ccccc2)c[nH]c1=O	0	4.3	2	-1	-1	1	9818
COc1ccc(OCC(=O)NC(=O)c2ccccc2)c([N+](=O)[O-])c1	.	4.2	2	3	-3	4	7846
Cc1oc(=O)c(NC(=O)c2ccccc2)cc1C(C)O (configuration not stated)	-3	0.1	-3	8	-5	15	2031
Cc1ccc(C(=O)N/C(=C\c2cccs2)C(=O)N2CCN(C)CC2)cc1C	-3	5.0	13	3	-7	0	7505
CCOc1cc(/C=N/NC(=O)Nc2ccccc2)ccc1O	0	.	.	.	-28	.	2582
CCC(=O)Nc1c(C(=O)N2CCCCCC2)cnn1-c1ccc(C)c(C)c1	1	2.9	3	1	-2	5	10917
Nc1cc(S(=O)(=O)Nc2ccccc2Cl)ccc1N1CCCCC1	.	18	1	-2	-8	-9	5112
CCOc1ccccc1NC(=O)c1ccc(-n2cncn2)nc1	1	7.2	14	3	1	8	3425
CN(C)c1ccc(-c2sc(Nc3ccccc3)n[n+]2-c2ccc(F)cc2)cc1	12	0.8	7	6	-23	0	10058
COc1cccc(-c2ccc(NC(=O)C3CCCN(CCCn4cccn4)C3)cc2)c1 (configuration not stated)	-5	-2.0	-7	4	-16	4	6598
O=C1C2CC=CCC2C(=O)N1c1ccc(NCCc2ccc(O)cc2)c([N+](=O)[O-])c1 (configuration not stated)	4	1.3	2	3	-10	8	2034
COc1ccc(/C=N/NC(=O)c2cccc(C(=O)N/N=C/c3ccc(OC)cc3)n2)cc1	12	.	.	.	-15	.	3467
CCCn1cc(SCC(=O)Nc2cc(C)on2)c2ccccc21	-15	1.1	11	16	-13	4	5643
CC(OC(=O)c1ccc([N+](=O)[O-])s1)C(=O)NC1CCCCC1C (configuration not stated)	.	8.4	18	-1	-4	1	6242
CCOC(=O)C1C2COc3ccccc3C2N2C(=O)N(c3ccc(Cl)cc3)C(=O)[C@@]12C (some centres not stated)	.	-1.2&15	8&-1	-4&9	.	-2&8	.
CC(C)(C)Cc1nnc(NC(=O)CSc2ccccc2)s1	-1	3.8	6	6	-37	2	3938
O=C(N=C1SC2CS(=O)(=O)CC2N1Cc1ccc(Cl)cc1)C1CC1 (configuration not stated)	8	-0.3	4	-1	-11	2	5154
COc1ccccc1NC(=O)Nc1ccc2[nH]c(=O)[nH]c2c1	-3	-3.8	0	2	-6	2	2407
CC(C)N(C(=O)CSc1nc2ccccc2n1Cc1ccc(F)cc1)C(C)C	-8	-3.7	4	8	-5	9	?

Other entries.
SMILES	BJeLR lethal	Sa RN4220 lethal	Mtb hypoxia inh	Mtb hypoxia inh growth	PrP 5UTR inh	ugtP null kill	Autofluor counter
O=C(Nc1ccc(NC(=O)C2CCCCC2)nc1)c1ccccn1	1	-3.3	13	1	-88	4	2572
O=C(Nc1ccc(S(=O)(=O)NCc2ccccc2)cc1)c1ccc(Br)o1	.	5.3	.	.	1	0	2747
CCN(CC)S(=O)(=O)c1ccc(Cl)c(C(=O)NC)c1	-3	9.1	17	12	-18	2	2453
Cc1ccc(S(=O)(=O)N2CCN(c3ccc4nnc(-c5ccccc5)n4n3)CC2)cc1	.	3.2	9	5	0	17	4526
CCCCCCCOC(=O)C[N+](C)(C)CCOC1CC2CCC1(C)C2(C)C (configuration not stated)	3	100*	26	22	-27	100*	2570
CC1(C)NC(=O)N(CC(=O)N2CCN(c3ccc([N+](=O)[O-])cc3)CC2)C1=O	.	3.3	0	-3	-7	10	3056
CN(C)CC(C)(C)CNS(=O)(=O)c1cccc(Cl)c1Cl	-5	4.4	7	-4	-9	10	3343
CCOc1cc(C(=O)NCc2ccccc2)ccc1OCC(=O)N1CCOCC1	-3	9.6	4	11	-4	13	3294
CC1(C)CC(=O)C2=C(C1)Nc1ccccc1NC2c1ccccc1F (configuration not stated)	0	4.4	-5	2	-18	4	3402
O=C(CN1C(=O)C2C3C=CC(C3)C2C1=O)NCCc1ccccc1 (configuration not stated)	11	0.5	.	.	-6	8	2646
O=C(COCc1ccccc1)N[C@@H]1c2ccccc2CC[C@H]1OCc1ccccc1	.	3.5	-11	-9	-6	-5	3292
S=C(NCc1ccc2c(c1)OCO2)NC1CC1	-5	-1.6	4	4	-20	7	4445
Cc1ccc(S(=O)(=O)Nc2ccccc2C(=O)Nc2ccc(S(=O)(=O)Nc3nccc(C)n3)cc2)cc1	-11	3.5	16	-1	-31	3	2508
COc1ccc(N2CCN(C(=O)CNC(=O)Cc3ccc(Cl)cc3)CC2)cc1	13	-11	6	10	-13	13	6766
CCC(C)(C)NC(=O)CC(c1ccc(OC)cc1)n1cccc1 (configuration not stated)	1	-11	9	20	-30	-14	2761
CCCC/C=C/C(NC(=O)CCc1ccccc1)c1ccccc1 (configuration not stated)	3	.	.	.	3	.	3038
COc1ccc(C(=O)C(C#N)=NNc2ccc([N+](=O)[O-])cc2)cc1	.	69	15	9	.	66	.
COc1ccc(NC(=O)CCNC(=O)Cn2cnc3sc4c(c3c2=O)CCCC4)c(OC)c1	-8	-3.0	-7	-10	-10	2	3548
Cc1ccc(S(=O)(=O)N2CCC(C(=O)Nc3ccccc3N3CCCCC3)CC2)cc1	-14	-3.1	14	-2	-31	-5	10172
COC(=O)c1ccc(CSc2nc3sc(C(=O)O)c(C)c3c(=O)[nH]2)cc1	6	-0.4	-2	4	.	6	.
CCOC(=O)N1CCN(C(=O)CSc2nnc(-c3ccc(C(C)(C)C)cc3)o2)CC1	4	3.5	.	.	-100	3	5545
Cc1c(Cl)cccc1N1C(=O)CC(NNC(=O)c2cccnc2)C1=O (configuration not stated)	5	2.4	2	5	-8	1	2646
Cc1ccc(C(NC(=O)N2CCOCC2)C(Cl)Cl)cc1F (configuration not stated)	-8	1.4	18	5	-9	4	2556
O=C(NC(=S)Nc1ccc2[nH]ncc2c1)c1ccccc1	-12	7.0	3	-3	-14	10	3217
COc1ccc(-c2cc(=O)c3c(OC)c(OC)c(OC)cc3o2)cc1	-8	2.2	.	.	-9	12	5710
COc1ccc(Cl)cc1NC(=O)NCCN1CCCCC1	9	-1.8	-4	7	-9	-1	4679

Screens deposited in PubChem by several laboratories.
